GIRK2 activ: activators of human GIRK2 potassium channels; P48051; HEK293-GIRK2 thallium flux, Thallos fluorescence; calls only for hits at 25 µM; 63,000 tested, 0.05% active;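 active = among the strongest 0.2% of first-round signals and kept after retests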;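 also: first round at about 10 µM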
Target sequence (P48051 whole entry, looked up): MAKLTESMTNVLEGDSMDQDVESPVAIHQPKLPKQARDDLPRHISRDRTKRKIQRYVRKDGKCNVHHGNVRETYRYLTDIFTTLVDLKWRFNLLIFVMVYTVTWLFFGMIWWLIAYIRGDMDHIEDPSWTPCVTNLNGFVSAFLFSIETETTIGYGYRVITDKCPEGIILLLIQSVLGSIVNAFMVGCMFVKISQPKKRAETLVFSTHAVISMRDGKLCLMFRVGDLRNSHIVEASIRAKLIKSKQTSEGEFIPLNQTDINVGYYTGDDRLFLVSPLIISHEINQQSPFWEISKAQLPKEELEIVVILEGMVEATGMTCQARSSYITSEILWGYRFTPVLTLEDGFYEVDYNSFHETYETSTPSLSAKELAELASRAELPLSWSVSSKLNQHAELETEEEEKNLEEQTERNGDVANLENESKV
Calls only; i = inactive; + = active, no number.

cpd	Structure	GIRK2 activ
1	COc1ccc2nc(-c3ccc(NC(=O)c4cc5ccccc5oc4=O)cc3)cn2n1	i
2	O=C(Cc1cccs1)NCCOc1cc(N2CCCC2)ncn1	i
3	CCOC(=O)NCc1cc(C2CC2)n(C)n1	i
4	O=C(c1c(F)cccc1Cl)N1CCN(CC(F)(F)F)CC1	i
5	N#CC1=C(SCC(=O)Nc2ccccc2Cl)NC(=O)CC1c1cccc([N+](=O)[O-])c1 (centres undefined)	i
6	COCCNC(=O)c1c(NC(=O)c2ccc(OC)cc2)sc2ccccc2c1=O	i
7	CCCOc1ccc(CNC(=O)CCn2cnc3c([nH]c4cc(OC)c(OC)cc43)c2=O)cc1	i
8	O=C(Cn1nc(-c2cccs2)c2sc(N3CCCCC3)nc2c1=O)Nc1ccc2c(c1)OCO2	i
9	Cc1ccc(S(=O)(=O)c2cnc(N3CCC(C(N)=O)CC3)nc2N)cc1	i
10	COCc1ccc(C(=O)Nc2cc(C)nc3ccc(Br)cc23)o1	i
11	COc1ccc(C2C(C(N)=O)=C(C)Nc3nc(C)nn32)cc1OCc1ccccc1 (centres undefined)	i
12	COc1ccccc1-c1noc(Cn2ncn3nc(-c4ccc(F)cc4)cc3c2=O)n1	i
13	COc1ccc(F)cc1S(=O)(=O)N1CCCC(c2nnc(C)s2)C1 (centres undefined)	i
14	COc1ccc(NC(=O)NCCc2ccoc2)cc1	i
15	O=C(Cn1nc(N2CCCC2)c2ccccc2c1=O)NCc1ccc(Cl)cc1	i
16	O=S(=O)(c1ccc2c(c1)CCCC2)N1CCC(Oc2ncccc2Cl)CC1	i
17	COc1ccccc1Cn1c(C2CC(=O)N(c3ccc(C)cc3)C2)nc2ccccc21 (centres undefined)	i
18	Cc1cn2c3c(=O)n(CC(=O)OCc4ccccc4)c(=O)n(C)c3nc2n1CCCN1CCOCC1	i
19	NC(=O)C1CCN(C(=O)c2csc(-c3cc4ccccc4[nH]3)n2)CC1	i
20	CN(CCO)CC1COCCN1C(=O)c1cc(C2CC2)on1 (centres undefined)	i
21	O=C(/C=C/c1cccs1)N1CCC(Cn2c(C(F)(F)F)nc3ccccc32)CC1	i
22	CCCCCNc1nc2c(c(=O)[nH]c(=O)n2C)n1CCOc1ccccc1	i
23	COc1ccc(CC(=O)NCC(c2cccs2)N(C)C)cc1 (centres undefined)	i
24	COCCCn1cnc2c(-c3ccccc3)cn(CC(=O)Nc3cccc(C(C)=O)c3)c2c1=O	i
25	COc1cccc2sc(N(C)CC(=O)NC34CC5CC(CC(C5)C3)C4)nc12	i
26	O=C(Nc1nc(-c2ccccn2)cs1)C1CCN(S(=O)(=O)c2cccs2)CC1	i
27	Cc1ccc(-c2cc3c(=O)n(CC(=O)NCc4ccccc4Cl)ccn3n2)cc1	i
28	O=C(Cn1cnc2c(cnn2CCO)c1=O)Nc1cccc(C(F)(F)F)c1	i
29	Cc1cc(C(O)CCNC(=O)c2cc(-c3ccccc3)on2)c(C)o1 (centres undefined)	i
30	CC[C@H]1OC(=O)[C@H](C)C(=O)[C@H](C)[C@@H](O[C@@H]2O[C@H](C)C[C@H](N(C)C)[C@H]2O)[C@](C)(OC)C[C@@H](C)C(=O)[C@H](C)[C@@H]2N(CCCCn3cnc(-c4cccnc4)c3)C(=O)O[C@@]21C	i
31	CS(=O)(=O)Nc1cccc(NC(=O)CCC2NC(=O)c3ccccc3NC2=O)c1 (centres undefined)	i
32	COc1cc(OC)cc(-c2noc(CCn3nc(-c4cccc(Cl)c4)ccc3=O)n2)c1	i
33	O=C(Cn1nnc2ccccc21)Nc1cc(-n2cccn2)ncn1	i
34	Cc1ccc(Cl)cc1NC(=O)Cn1c(C)cc(C)c(-c2nc(-c3ccc(F)cc3)no2)c1=O	i
35	Cc1ccc(S(=O)(=O)NC2CCN(c3nccs3)CC2)s1	i
36	O=C(/C=C/c1cccs1)N1CC(c2nc(-c3cccc(C(F)(F)F)c3)no2)C1	i
37	O=C(Nc1ccc2c(=O)c3cccc(Cl)c3oc2c1)c1cccc([N+](=O)[O-])c1	i
38	Cn1cc(C(=O)N2CCN(c3ccc(F)cc3)CC2)nn1	i
39	Cc1ccc(C)c(Cn2cc(S(=O)(=O)N3CCCCC3)ccc2=O)c1	i
40	COc1ccc(Cl)cc1NC(=O)NCCCn1ncccc1=O	i
41	O=C(NCc1nncn1-c1ccccc1)c1cnn2c1OCCC2	i
42	O=C(NCc1ccccc1)C(=O)NCC1CCN(C2CCCC2)CC1	i
43	CCOC(=O)c1c(NCCOC)c2cccc(C)c2[nH]c1=O	i
44	CCc1ccccc1NC(=O)CSc1nc2ccccc2nc1C	i
45	Brc1nc2ccc3scnc3c2s1	i
46	CCOc1cc(S(=O)(=O)Nc2cccc3cn[nH]c23)ccc1Br	i
47	CN(c1ccsc1C(=O)NCc1ccco1)S(=O)(=O)c1ccccc1	i
48	COc1cc(OC)c(NC(=O)c2nnn(-c3ccccc3C)c2-c2ccncc2)cc1Cl	+
49	O=C(Nc1ccc2c(=O)c3ccccc3oc2c1)c1ccccc1Br	i
50	Cc1cc(NC(=O)CN2CCc3[nH]c4c(F)ccc(F)c4c(=O)c3C2)ccc1F	i
51	O=S(=O)(c1ccc(Br)cc1)N1CCC(Cn2ccnc2)CC1	i
52	COc1ccc(CNC(=O)Cn2c(=O)n(CCCCC(=O)NCC(C)C)c(=O)c3ccccc32)cc1	i
53	O=C(CCCn1cccc1)Nc1ccccc1Cl	i
54	O=c1ccc(-c2ccncc2)nn1CCNS(=O)(=O)c1ccc(OC(F)(F)F)cc1	i
55	CSc1ccc(CN2CC(c3nc(-c4cccs4)no3)C2)cc1	i
56	CC(C)(Oc1ccc(Cl)cc1)C(=O)N1CC(c2nc(C3CC3)no2)C1	i
57	O=C(c1cccc(C(F)(F)F)c1)N1CCCC(COCc2ccccc2)C1 (centres undefined)	i
58	O=C(CSc1ncn[nH]1)c1ccc2c(c1)OCCO2	i
59	COC(=O)N1CCc2ccc(F)cc2C1C(=O)NCc1nc2ccccc2[nH]1 (centres undefined)	i
60	O=C(CSc1nnc(-c2ccc(S(=O)(=O)N3CCCCCC3)cc2)o1)Nc1ncccn1	i

Remaining list, next part
cpd	Structure	GIRK2 activ
61	O=C(NCc1ccc(F)cc1)Nc1ccc2c(c1)CCCN2S(=O)(=O)c1ccccc1	i
62	O=C(CCSc1ccccc1)NCCOc1ccc2c(c1)OCO2	i
63	CC(C)Cn1c(=O)c2sccc2n2c(CCC(=O)NCc3cc(F)ccc3F)nnc12	i
64	O=C(/C=C\c1ccccc1)NCCCS(=O)(=O)N1CCN(c2ncccn2)CC1	i
65	CCNC(=O)Cc1nc(-c2ccncc2)n[nH]1	i
66	O=C(NCCN1CCN(C(=O)c2cc(-c3ccco3)[nH]n2)CC1)c1ccc2c(c1)OCO2	i
67	N#CC(c1nc2ccccc2nc1N1CCCCC1)S(=O)(=O)c1cccc(Cl)c1 (centres undefined)	i
68	COc1cccc(OC(C)C(=O)O)c1 (centres undefined)	i
69	O=C(NCc1ccc2c(c1)OCO2)c1nnn(-c2ccc(Cl)cc2)c1-c1cccnc1	i
70	O=C(CCc1ccccc1)NCCN1CCN(c2ccc(Cl)cc2)CC1	i
71	COC(=O)CSc1nnc(N2CCN(c3ccccc3)CC2)s1	i
72	CN(c1ccc2c(c1)OCCO2)S(=O)(=O)c1ccsc1-c1nc(-c2cccc(Cl)c2)no1	i
73	O=C(NCC1CCS(=O)(=O)C1)c1c[nH]c2ccccc12 (centres undefined)	i
74	CN(c1ccccc1)c1nnc(-c2ccc(NC(=O)c3cccs3)cc2)s1	i
75	Cc1n[nH]c(C)c1S(=O)(=O)N1CCC(c2ccccc2)C1 (centres undefined)	i
76	CCCn1c(=O)c2c(nc3n2CC(C)CN3c2ccc(OCC)cc2)n(C)c1=O (centres undefined)	i
77	Cc1cc(NC(=O)C2CC(=O)N(c3ccccc3)C2)n(-c2nc3c(cnn3-c3ccccc3)c(=O)[nH]2)n1 (centres undefined)	i
78	O=C(Nc1nc2c(s1)CN(S(=O)(=O)C1CC1)CC2)c1cccc(-n2cnnn2)c1	i
79	CCc1nc(SCC(=O)Nc2ccc(S(N)(=O)=O)cc2)c2c3c(sc2n1)CCC3	i
80	CC(C)c1ccc(NC(=O)C(=O)NCC2CCN(Cc3ccsc3)CC2)cc1	i
81	COc1ccc(F)cc1S(=O)(=O)N1CCC(CSCc2ccco2)CC1	i
82	CC(C)CC(=O)Nc1ccc(-n2cnc(C(=O)N3CCCC(C)C3)c2)nc1 (centres undefined)	i
83	N#C/C(C(=O)NCc1ccco1)=C1/N=C(NC(=O)c2cccc([N+](=O)[O-])c2)c2ccccc21	i
84	COc1cc(C(=O)Nc2ccc(S(=O)(=O)N3CCCCCC3)cc2)cc(OC)c1OC	i
85	Cc1noc(CNC(=O)c2ccc[nH]c2=O)n1	i
86	COCCN1CCC(NC(=O)c2cc(OC)cc(OC)c2)CC1	i
87	O=C(NCC(F)(F)F)C1CCN(C(=O)Cc2noc3ccccc23)CC1	i
88	Cc1ccc2[nH]c(C(=O)NCc3cccnc3)c(NC(=O)c3ccc(F)cc3)c2c1	i
89	CCOc1ccc(NC(=O)CN2C(=O)NC(c3ccc(C)cc3)C3=C2COC3=O)cc1 (centres undefined)	i
90	CCS(=O)(=O)N1CCN(CC(O)C2CC2)CC1 (centres undefined)	i
91	COc1cccc(-c2cc(C(=O)Nc3nnc(C)s3)n(C)n2)c1	i
92	Clc1ccc(C=Nc2ncn[nH]2)cc1	i
93	Cc1ccc(C)c(S(=O)(=O)N2CCC(c3nnc(-c4ccco4)s3)CC2)c1	i
94	COc1cccc(COc2cn(C)c(C(=O)Nc3ccc4c(c3)OCO4)cc2=O)c1	i
95	COc1ccc(-c2cc3c(=O)n(CC(=O)NCCc4ccccc4)ccn3n2)cc1OC	i
96	CCN(CC)c1ccc(-c2noc(CN3CCN(c4ncccn4)CC3)n2)cn1	i
97	O=C(CN1C(=O)C2(SCC(=O)N2c2ccc(F)cc2)c2ccccc21)NCCc1ccccc1 (centres undefined)	i
98	CCOC(=O)c1ccc2nc(NC(=O)c3cccc(S(=O)(=O)N4CCOCC4)c3)sc2c1	i
99	COc1ccc(-c2noc(Cc3nnc(-c4cccc(Br)c4)o3)n2)cc1OC	i
100	CCOC(=O)c1cccc(NC(=O)CCn2nnc3ccccc3c2=O)c1	i
101	COc1ccccc1-c1coc2c3c(ccc2c1=O)OCN(C(C)c1ccccc1)C3 (centres undefined)	i
102	Cc1cc(C)n(-c2nc(CCNC(=O)CCn3cnc4ccccc4c3=O)cs2)n1	i
103	O=C(Oc1ccc2c(=O)c(-c3ccc(Cl)cc3)c(C(F)(F)F)oc2c1)N1CCOCC1	i
104	Cc1nnc(SCC(=O)c2ccc(Cl)c(Cl)c2)s1	i
105	CC(=O)c1cccc(C#Cc2ccccc2)c1	i
106	Cc1ccc(-c2noc(CN3N=NC4C(=O)N(c5ccccc5)C(=O)C43)n2)cc1C (centres undefined)	i
107	CCOc1ccc(C(=O)NCC2CCN(c3ccccn3)CC2)cc1	i
108	CCSc1nnc(NC(=O)C(c2ccccc2)n2cccc2)s1 (centres undefined)	i
109	COCCNC(=O)N1CCC(Oc2nc3c(Cl)cccc3s2)CC1	i
110	Cc1ccc(-n2nnc(-c3nc(C)c(C(=O)NC4CCCC4)s3)c2C)cc1C	i
111	CC(=O)Oc1ccc(-c2csc(/C(C#N)=C\Nc3ccc4c(c3)OCO4)n2)cc1	i
112	Cc1cc(=O)n(CC(=O)N(C)c2ccccc2)c(N2CCCC2)n1	i
113	Cc1ccc(-n2ccnc(SCC(=O)Nc3ccc(F)cc3F)c2=O)cc1C	i
114	CCCCn1c(SCC(=O)Nc2ccc(OC)c(OC)c2)nc2c(sc3ncccc32)c1=O	i
115	Cc1cccc(C)c1NC(=O)Cn1c(=O)c(CNc2ccccc2)cc2cc3c(cc21)OCCO3	i
116	O=C(NCCc1ccccc1)NCc1ccc(-c2nccs2)cc1	i
117	Cn1c(=O)c(C(=O)Nc2ccc3c(c2)OCO3)cc2cccnc21	i
118	CC(=O)c1c(C)nn(C(C)CC(=O)O)c1C (centres undefined)	i
119	O=C(c1cc(Br)ccc1Cl)N1CCC(CSC2=NCCS2)CC1	i
120	COC(=O)c1sccc1NC(=O)Cn1c(=O)nc(-c2ccccc2)c2ccccc21	i

Next section:
cpd	Structure	GIRK2 activ
121	O=[N+]([O-])c1ccc(-c2nc3ccccc3s2)cc1	i
122	COc1ccc(N(CC(O)CNCCC(=O)O)S(=O)(=O)c2ccc(C)cc2)cc1 (centres undefined)	i
123	COc1cccc(CSc2nc(CC(=O)NCC3CCCCC3)cc(=O)[nH]2)c1	i
124	O=C(Cc1ccccc1)Nn1c(SCC(=O)c2ccc(F)cc2)nc2ccccc2c1=O	i
125	NC(=O)c1ccc(NC(=O)Cc2cc(=O)[nH]c(SCc3ccc(F)cc3)n2)cc1	i
126	O=C(CCCCl)Oc1ccc2cc(-c3nc4ccccc4s3)c(=O)oc2c1	i
127	Cc1cc(NS(=O)(=O)c2ccc(NC(=O)c3coc(NC(=O)c4ccsc4)n3)cc2)nc(C)n1	i
128	O=C(NCC1CCN(S(=O)(=O)c2cccnc2)CC1)Nc1ccc2c(c1)OCO2	i

The list is partial; the hit share may differ from the screen's.
